fixLJ activator: activators of Burkholderia fixLJ two-component system. B. multivorans fixK-promoter GFP reporter, 18 h; hits give high values. z-score (no concentration beside the values). hit rate 0.3% among 29,000. AID 1918990;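 active = replicate mean overnight rise in green fluorescent reporter signal, 3 or more SD over negative controls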;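 also: score is relative to vehicle wells of the plate; 300 nL library stock went into each well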
Starred values were filed as active, the others as inactive; & = joins results of further samples.

cpd	compound	fixLJ activator
1	CCOC(=O)c1ccc(NC(=O)Cn2c(=O)n(-c3ccc(C)cc3)c(=O)c3c2cnn3C)cc1	0.67
2	Clc1ccccc1-c1nnc(COc2ccccc2)o1	-1.2
3	O=C(CCS(=O)(=O)c1cc(Br)cc2c1N(C(=O)C1CC1)CC2)N1CCN(c2ccccc2)CC1	-1.3
4	CCOc1ccc(Nc2c(S(=O)(=O)c3ccc(C)cc3)cnc3ccc(F)cc23)cc1	0.4
5	Cc1ccc(Cl)cc1Nc1nc2ccccc2c2nncn12	-0.7
6	CC(=O)c1nn(-c2ccc(OC(F)(F)F)cc2)nc1Nc1ccccc1	-1
7	CCOC(=O)c1c(NC(=O)C2c3ccccc3Oc3ccccc32)sc2c1CCC(CC)C2 (stereo not drawn)	-2
8	CCCN1C(=O)C(Cc2nc3ccccc3c(=O)n2-c2ccccc2)c2cc(C)ccc21 (stereo not drawn)	-0.83

Other structures:
cpd	compound	fixLJ activator
9	O=C1OCC2=C1C(c1cccc(Cl)c1)CC(=O)N2c1ccc(C(F)(F)F)cc1 (stereo not drawn)	-5.7
10	Cc1cccc(CCNC(=O)C2CCCN(C3CCN(C(=O)C4CC4)CC3)C2)c1 (stereo not drawn)	1.2
11	COc1cc(C2NC(=O)c3c(sc4c3CCN(C)C4)N2)cc(Br)c1OC(=O)c1ccc(C)cc1 (stereo not drawn)	-1.3
12	COc1cnc(N2CCC(O)[C@]3(CCCN(C(=O)C4CC=CC4)C3)C2)nc1 (stereo partly drawn)	0.41
13	CCCCC(=O)Nc1ccc(C)cc1NC(=O)c1ccncc1F	-0.24
14	CCOc1ccc(NC(=O)CN(C)S(=O)(=O)c2ccc3c(c2)c(=O)n(C)c(=O)n3C)cc1	-1.7
15	CCc1ccc(CN(C(=O)c2cc3ccccc3oc2=O)C2CCS(=O)(=O)C2)cc1 (stereo not drawn)	-3.7
16	CCN(CC)c1ccc(C2C(C(N)=O)=C(C)Nc3nc(SCc4ccccc4Cl)nn32)cc1 (stereo not drawn)	-5.8

Continued:
cpd	compound	fixLJ activator
17	Cc1ccc(-c2nc3c(cnn3-c3ccccc3)c(=O)n2-c2cccc(Cl)c2)cc1	0.33
18	CCc1ccc(NC(=O)Cn2c(=O)n(CCC(=O)NCCc3ccc(OC)c(OC)c3)c(=O)c3ccccc32)cc1	-0.94
19	CC(c1cc2ccccc2s1)N(O)C(N)=O (stereo not drawn)	-0.62&-1.4
20	O=C1CCc2ccc(OCCCCN3CCN(c4cccc(Cl)c4Cl)CC3)cc2N1	-1.6&1.2
21	CCC(C)NC(=O)c1cc(-c2cccc(OC)c2)on1 (stereo not drawn)	-1.2
22	COc1ccccc1C(=O)n1nc(-c2ccco2)nc1NCc1ccc(Cl)cc1	-1.5
23	CS(=O)(=O)NCc1cc2n(n1)CCN(Cc1ccc3c(c1)CCO3)C2	0.29
24	CCOC(=O)c1cc2c(=O)n3ccccc3nc2n(Cc2ccco2)c1=NC(=O)c1ccc(C(C)(C)C)cc1	-0.12

Next structures follow.
cpd	compound	fixLJ activator
25	CN(C)S(=O)(=O)N(CC(=O)Nc1ccc(C(F)(F)F)cc1)c1ccccc1	-1.6
26	Cc1nc(C2CCCN(C(=O)CCC(C)C)C2)cc(N2CCOCC2)n1 (stereo not drawn)	-0.28
27	CCc1ccccc1NS(=O)(=O)c1ccc2nc(-c3ccccc3)[nH]c2c1	-1.2
28	CC(C)COC(=O)N1CCc2onc(-c3ccc(F)c(F)c3)c2C1	-1.1
29	CCN(Cc1ccc(SC)cc1)C(=O)NC(C)Cc1cc(C)[nH]n1 (stereo not drawn)	-3.2
30	COc1ccc2c(c1OC)C(=O)O[C@H]2[C@H]1c2c(cc3c(c2OC)OCO3)CCN1C	0.79
31	CCOc1ccc(-c2cn3c(n2)sc2cc(C(=O)NC(C)C45CC6CC(CC(C6)C4)C5)ccc23)cc1 (stereo not drawn)	1.7
32	Cc1ccc(C(=O)c2oc3ccccc3c2NC(=O)Cc2coc3c(C)c(C)ccc23)cc1	-0.84

The list goes on:
cpd	compound	fixLJ activator
33	CS(=O)(=O)NCCC(=O)N1CCC2(CC1)OCCc1c2[nH]c2ccccc12	0.08
34	CC(C)NCC(O)c1ccc(NS(C)(=O)=O)cc1 (stereo not drawn)	-1.1
35	Cc1ccc(-c2nn3c(C)nnc3c3ccccc23)cc1S(=O)(=O)NC(C)(C)CO	-0.83
36	O=C(Oc1ccccc1F)c1nc(SCc2ccc(F)cc2)ncc1Cl	0.27
37	COc1cccc2c1cc1c(=O)n(CC(=O)N3CCN(c4cccc(C)c4C)CC3)nc(C)n12	-0.35
38	CCCCCCCCCCCCCCCC(=O)O[C@@H]1[C@@H](O)[C@@H](O)[C@@H](C(NC(=O)[C@@H]2C[C@@H](CCC)CN2C)C(C)Cl)O[C@@H]1SC (stereo partly drawn)	-0.22
39	CCC(=O)N1CCc2cc(S(=O)(=O)CCC(=O)NCc3ccccc3OC)ccc21	-0.15
40	CCC1=C(c2ccc(C)cc2)S(=O)(=O)N=C1N1CCC(C(=O)NCCc2ccc(Cl)cc2)CC1	-1.1

Compounds listed so far with a CF3 group, in the order listed:
cpd	compound	fixLJ activator
6	CC(=O)c1nn(-c2ccc(OC(F)(F)F)cc2)nc1Nc1ccccc1	-1
9	O=C1OCC2=C1C(c1cccc(Cl)c1)CC(=O)N2c1ccc(C(F)(F)F)cc1 (stereo not drawn)	-5.7
25	CN(C)S(=O)(=O)N(CC(=O)Nc1ccc(C(F)(F)F)cc1)c1ccccc1	-1.6

Down the list, quoted from above.
Nos. 33 to 40 in fixLJ activator: 0.08, -1.1, -0.83, 0.27, -0.35, -0.22, -0.15, -1.1

(list continues)
cpd	compound	fixLJ activator
41	COC(=O)C(CCSC)NC(=O)c1cc2c(n(-c3ccc(Cl)cc3)c1=O)CCCC2=O (stereo not drawn)	-0.8
42	COc1cccc(-c2nc(S(=O)(=O)c3ccccc3)c(N3CCCCC3)o2)c1	0.49
43	Cc1ccc2cccc(NC(=O)c3ccc(-c4ccc(Cl)cc4Cl)o3)c2n1	-0.09
44	O=C(CCCn1c(=O)c2ccccc2n(CC(=O)Nc2cccc(Cl)c2)c1=O)NCc1ccc2c(c1)OCO2	-1.9
45	COc1cc(C2C=C(C(=O)O)Nc3ncnn32)ccc1O (stereo not drawn)	0.9
46	CC(NC(=O)c1ccc2c(c1)nc(N1CCOCC1)n2C)c1cnn(C)c1 (stereo not drawn)	1.3
47	Nc1cc(=O)nc(SCC(=O)Nc2ccc(F)cc2)n1-c1cccc(Cl)c1	1
48	COc1ccc(NC(=O)c2c(NC(=O)COc3ccc(Cl)cc3)sc3c2CCCCC3)cc1	0.18

(cont.)
cpd	compound	fixLJ activator
49	CC(C)Oc1ccc(Cl)cc1CN1CC(O)C(Cc2cnccn2)C1 (stereo not drawn)	-3.9
50	Cc1ccccc1C(=O)N1CCCCC1CCN1CCCCC1 (stereo not drawn)	-0.4
51	O=C(NCc1ccc(Cl)cc1)C1CCN(S(=O)(=O)c2ccccc2)CC1	-1.8
52	COC(=O)c1cc2sccc2n1Cc1nc(-c2ccc(C)cc2)oc1C	-0.66
53	COCCNC(=O)CCCn1c(=O)c2cc(OC)c(OC)cc2n(CC(=O)Nc2ccc(F)cc2)c1=O	0.67
54	O=C(CCc1nc2ccccc2[nH]1)NCC1CCCN(c2ccccn2)C1 (stereo not drawn)	-1.3
55	CCOc1ccc(CCNC(=O)c2cc3cc4ccc(OC)cc4nc3s2)cc1OCC	1.1
56	CCN(CC)c1ccc2cc(-c3nnc(-c4cccc(Cl)c4)o3)c(=O)oc2c1	-8.9

Continuation.
cpd	compound	fixLJ activator
57	CCOc1ccc(OCC)c(NC(=O)c2ccc(-c3ccccc3)s2)c1	0.56
58	COc1ccc(C(C)NC(=O)CN(c2cc(OC)ccc2OC)S(=O)(=O)c2ccccc2)cc1 (stereo not drawn)	-0.26
59	CC(C)(NC(=O)c1cccs1)C(=O)NCC1(c2cccc(F)c2)CCOCC1	1.4
60	C[C@@](Cc1ccc(O)c(O)c1)(NN)C(=O)O	-1.9
61	COCCc1noc(C(C)NC(=O)N(C)Cc2cnc3ccccc3n2)n1 (stereo not drawn)	-2.1
62	Cc1sc2c(c1C)c(=O)n(-c1cccc(C(F)(F)F)c1)c(=O)n2Cc1ccc(F)cc1	-2.6
63	COc1ccc(OC)c(CNc2ncnc3onc(-c4ccc(Cl)cc4)c23)c1	-1
64	O=C(Nc1nc2ccc(F)cc2s1)c1nc(S(=O)(=O)Cc2ccccc2F)ncc1Cl	2.9

Later entries:
cpd	compound	fixLJ activator
65	O=C(Cn1c(=O)oc2cc(S(=O)(=O)N3CCCC3)ccc21)NCc1ccc(F)cc1	-0.69
66	COc1ccccc1NC(=O)C1=C(C)Nc2nc(SCc3ccccc3)nn2C1c1cccc(O)c1 (stereo not drawn)	-0.34
67	C[N+](C)(C)CCOC(N)=O	-0.72&-0.65
68	Cc1ccc(C(=O)Nc2c(-c3ccccc3)nc3ccccn23)cc1C	-0.49
69	Cc1ccc(NC(=O)CCc2c(C)nc3nc(C)nn3c2C)c(Cl)c1	-0.04
70	CN(C)S(=O)(=O)CCCN1CCCN(C(=O)C2CC2)CC1	-1.1
71	Cc1cccc(N(C)C(CNS(=O)(=O)c2ccccc2)c2ccccc2)c1 (stereo not drawn)	-0.91
72	CN1CCN(CC(=O)N2c3ccccc3C(=O)Nc3cccnc32)CC1	-1.4&-0.55

Following part
cpd	compound	fixLJ activator
73	CCOC(=O)N1CCc2c(sc3c2c(=O)n(-c2ccc(CC)cc2)c(=O)n3Cc2ccc(F)cc2Cl)C1	-0.02
74	O=C1NCC2(CCN(C(=O)CCCc3nc(-c4ccncc4)no3)CC2)O1	0.82
75	CCCOc1ccc(C2c3c(oc4ccccc4c3=O)C(=O)N2c2ccc(C)cn2)cc1OCC (stereo not drawn)	0.06
76	COC(=O)c1c(N)n(-c2ccc(OC)c(Cl)c2)c2nc3ccccc3nc12	-0.21
77	CCOC(=O)c1ccc(N2C(=O)c3n[nH]c(-c4cccs4)c3C2c2ccc(C)cc2)cc1 (stereo not drawn)	-0.45
78	CCCCNC(=O)CCc1c(C)nc2cc(-c3ccccc3)nn2c1C	-1.2
79	COc1ccc(-c2nc3ccccc3o2)cc1NC(=O)COc1ccc(C(C)(C)C)cc1	-1.7
80	Cc1cccc(-n2nc(Cc3ccccc3)n(CC(=O)NCC(C)O)c2=O)c1 (stereo not drawn)	0.21

(list continues)
cpd	compound	fixLJ activator
81	Cc1cc(CC(C)NC(=O)C=Cc2cnc(N(C)C)nc2)n[nH]1 (stereo not drawn)	-1.1
82	COc1ccc2nc(CNC(=O)CCCc3cn[nH]c3)[nH]c2c1	-1
83	c1ccc(CNc2nc3c(-c4ccccc4)nnn3c3ccccc23)cc1	-0.24
84	Cn1nnnc1SCCNS(=O)(=O)CC1CCCC1	-3
85	CCc1nnsc1C(=O)N1CCC2(CC1)c1nc[nH]c1CCN2C(=O)COC	0.85
86	CC(C)(C)c1ccc(C(=O)Nc2ccc(-c3nc4cc(Cl)ccc4o3)cc2)cc1	-1.7
87	Cc1ccc(Cl)cc1N1CCN(CCCNc2ncnc3onc(-c4ccc(Cl)cc4)c23)CC1	-0.51
88	COc1ccc2c(c1)c(C(=O)N1CCC(c3cc(=O)[nH]cn3)CC1)c(C)n2C	-1.3

Following part:
cpd	compound	fixLJ activator
89	COc1ccc(C2CC(=O)N3CN(C4CCCCC4)CSC3=C2C#N)cc1 (stereo not drawn)	0.12
90	CCCCOC(=O)c1ccc(-n2nnc3c(sc4nc(C)cc(C)c43)c2=O)cc1	-1.1
91	CCC(=O)N1CCc2cc(Br)cc(S(=O)(=O)N3CCN(c4ccc(C)cc4)C(C)C3)c21 (stereo not drawn)	1.7
92	Cc1[nH]c2c(c1C(=O)NC(C)C1=CCCCC1)C(=O)CCC2 (stereo not drawn)	0.73
93	CCOc1ccc(C(=O)Nc2ccc(NC(=O)c3ccccc3)cc2)cc1Br	0.65
94	CCOC(=O)c1c(-c2ccc(OC)c(OC)c2)csc1NC(=O)c1ccccc1F	-0.86
95	CN(C)C1(CNC(=O)CC(Cc2ccccc2)c2ccco2)CCOCC1 (stereo not drawn)	-1.8
96	Cc1nc(CC(=O)N2CCCC(c3[nH]ncc3-c3ccccc3)C2)cs1 (stereo not drawn)	0.67

An excerpt from above in order of SMILES length, high to low:
cpd	compound	fixLJ activator
91	CCC(=O)N1CCc2cc(Br)cc(S(=O)(=O)N3CCN(c4ccc(C)cc4)C(C)C3)c21 (stereo not drawn)	1.7
96	Cc1nc(CC(=O)N2CCCC(c3[nH]ncc3-c3ccccc3)C2)cs1 (stereo not drawn)	0.67
95	CN(C)C1(CNC(=O)CC(Cc2ccccc2)c2ccco2)CCOCC1 (stereo not drawn)	-1.8

(continued)
cpd	compound	fixLJ activator
97	COc1ccc(NC(=O)c2nc(SCc3ccccc3F)ncc2Cl)cc1	-0.07
98	COc1cc2[nH]c(=O)n(CCCCCC(=O)NCCc3ccccc3)c(=O)c2cc1OC	-0.61
99	COc1ccc(C(=O)OC2=C(C(=O)c3ccccc3)N(C)S(=O)(=O)c3ccccc32)cc1OC	-1.3
100	Cn1nccc1CCC(=O)N1CCCN(C(=O)CCc2cccnc2)CC1	0.84
101	CC(=O)Nc1ccc(S(=O)(=O)NC2=NCN(CCO)CN2)cc1	-0.27
102	CCN(CCc1nc2ccc(C)cc2[nH]1)C(=O)c1cc(-c2cnn(C)c2C)n[nH]1	-0.47
103	CCOC(=O)c1c(-c2ccccc2)oc2ccc(NS(=O)(=O)c3ccc(OC)cc3)cc12	0.68
104	CCc1n[nH]c2c1CN(C(=O)c1nccnc1C(=O)N1CCCCC1)CC2	-0.82

The list goes on.
cpd	compound	fixLJ activator
105	COc1ccccc1NC(=O)CSc1nc2c(oc3ccccc32)c(=O)n1-c1ccc(C)cc1	-0.74
106	CC(C(=O)O)c1ccc(-c2ccccc2)c(F)c1 (stereo not drawn)	-0.79&0.09
107	COc1cc(OC)cc(C(=O)Nc2ccc(Cl)cc2C(=O)c2ccccc2Cl)c1	0.82
108	Cc1ccc(Nc2c(-c3ccc(C)cc3)nc3c(C)cccn23)cc1	-0.03
109	Cc1nc(CN2CCOc3c(O)cc(-c4ccccc4C)cc3C2)no1	-1.1
110	CCS(=O)(=O)N1N=C(c2ccc(C)cc2)CC1c1cc2ccc(OC)cc2nc1Cl (stereo not drawn)	-13
111	CC(=O)N1CCCC(C(=O)NCCS(=O)(=O)c2ccc(F)cc2)C1 (stereo not drawn)	-0.57
112	COCCNC(=O)CCc1c(C)nc2c(c(C)nn2-c2ccc(C)cc2)c1C	-3

High-throughput results from PubChem BioAssay.

Only part of the results is shown, so the mix of outcomes need not match the whole.
